Bioassay records from PubChem.
ID4 binder: binders of human ID4 protein, primary screen, biochemical, small molecule microarray, single point; Flag-ID4 binding, fluorescence F/B; AID 624137, 2012; calls only; DNA-binding protein inhibitor ID-4 (Homo sapiens), P47928; actives 1.2% (n = 31,000);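 active means spot signal over background at p below 0.07 in all four prints; compounds were printed on slides so no solution concentration is given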;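 further: a binder raises fluorescence above local background on the spot; about 2 pmol printed per array spot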
Target sequence (P47928 whole entry, looked up): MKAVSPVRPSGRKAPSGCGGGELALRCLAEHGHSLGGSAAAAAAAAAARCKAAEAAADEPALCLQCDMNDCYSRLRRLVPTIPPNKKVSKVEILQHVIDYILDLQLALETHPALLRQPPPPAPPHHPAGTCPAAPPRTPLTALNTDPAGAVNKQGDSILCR
c-Myc SMM: binders of human c-Myc, primary screen, biochemical, small molecule microarray, anti-His fluorescence | His-c-Myc binding | actives 1.5% (n = 17,000) | calls only;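 active means spot fluorescence over background with P-value below 7% in all four replicate spots, showing protein binding; compounds were printed on slides so no solution concentration is given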;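 further: score is binary with 100 for all four spots passing and 0 otherwise; about 2 pmol printed per array spot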
p53 mut binder: binders of human mutant p53, primary screen, biochemical, small molecule microarray, anti-GST fluorescence; mutant tumor protein p53 (GST-tagged), Homo sapiens; small molecule microarray binding; calls only; actives 0.4% (n = 17,000); AID 624136, 2012;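 active means compounds whose four printed spots each glow above background more than chance allows, each with a p-value under 7%; compounds were printed on slides so no solution concentration is given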;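 further: about 2 pmol printed per array spot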
STAT3 SMM: STAT3 binders, primary screen, biochemical, small molecule microarray, single point, set 2. Signal transducer and activator of transcription 3 (Homo sapiens), P40763. His-STAT3 binding, anti-His fluorescence. calls only. actives 0.2% (n = 17,000). AID 624138, 2012;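 active means compounds whose four printed spots each show fluorescence over background unusually high for their array block, chance value under 7%; compounds were printed on slides so no solution concentration is given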;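 further: about 2 pmol printed per array spot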
Target sequence (P40763 whole entry, looked up): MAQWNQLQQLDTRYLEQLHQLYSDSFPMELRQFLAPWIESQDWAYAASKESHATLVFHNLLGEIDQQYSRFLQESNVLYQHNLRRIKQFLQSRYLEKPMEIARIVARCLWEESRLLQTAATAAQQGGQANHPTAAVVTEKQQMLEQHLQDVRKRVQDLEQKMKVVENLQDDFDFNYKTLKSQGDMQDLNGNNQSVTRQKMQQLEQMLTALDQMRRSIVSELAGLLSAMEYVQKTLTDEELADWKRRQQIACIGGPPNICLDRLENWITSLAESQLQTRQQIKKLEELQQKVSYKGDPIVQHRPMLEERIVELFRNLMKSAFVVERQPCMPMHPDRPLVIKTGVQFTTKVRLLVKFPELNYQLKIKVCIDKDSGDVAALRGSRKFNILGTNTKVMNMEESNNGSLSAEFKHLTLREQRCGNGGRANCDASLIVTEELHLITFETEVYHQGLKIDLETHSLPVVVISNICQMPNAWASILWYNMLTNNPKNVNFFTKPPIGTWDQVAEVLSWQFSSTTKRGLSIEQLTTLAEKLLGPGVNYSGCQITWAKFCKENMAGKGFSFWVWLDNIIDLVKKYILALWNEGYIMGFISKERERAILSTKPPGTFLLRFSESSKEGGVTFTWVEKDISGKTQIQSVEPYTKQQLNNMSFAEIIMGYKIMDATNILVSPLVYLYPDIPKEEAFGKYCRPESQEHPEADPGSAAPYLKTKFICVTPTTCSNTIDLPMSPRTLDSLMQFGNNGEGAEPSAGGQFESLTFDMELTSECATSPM
Calls only; i = inactive; / = no result given; + = active, no number.

Order of values: ID4 binder, c-Myc SMM, p53 mut binder, STAT3 SMM
1) Cc1noc(C)c1S(=O)(=O)Nc1ccc2c(c1)C(=O)N([C@H](C)CO)C[C@@H](C)[C@H](CN(C)C(=O)Nc1ccc(F)cc1)O2
  i, i, i, i
2) COc1cccc(C2=NN(C(=O)c3onc(-c4ccccc4Cl)c3C)C(c3ccco3)C2)c1 (configuration not stated)
  i, i, i, i
3) C=CCN1C(=O)[C@@]2(O[C@@H](CCO)[C@H]([Si](C)(C)c3ccc(OC)cc3)[C@H]2C)c2cc(N3CCC3=O)ccc21
  /, i, i, i
4) C[C@@H]1CN([C@@H](C)CO)C(=O)Cc2cc(NC(=O)Cn3cnnn3)ccc2O[C@@H]1CN(C)C(=O)Nc1ccccc1
  i, i, i, i
5) C[C@@H]1CN([C@H](C)CO)C(=O)c2cccc(NS(=O)(=O)c3ccccc3)c2O[C@@H]1CN(C)C(=O)Nc1cccc2ccccc12
  i, i, i, i
6) C[C@H]1CN([C@@H](C)CO)C(=O)c2cccc(NC(=O)C3CCOCC3)c2O[C@H]1CN(C)Cc1ccc2c(c1)OCO2
  i, i, i, i
7) Cc1noc(C)c1NC(=O)N(C)C[C@@H]1OCCCC[C@H](C)Oc2ccc(NS(=O)(=O)c3cn(C)cn3)cc2C(=O)N([C@H](C)CO)C[C@@H]1C
  i, i, i, i
8) Cc1noc(C)c1S(=O)(=O)N(C)C[C@H]1Oc2ccc(NC(=O)CCCN(C)C)cc2C(=O)N([C@H](C)CO)C[C@@H]1C
  +, i, i, i
9) C[C@@H]1CN([C@@H](C)CO)C(=O)Cc2cc(NC(=O)CCC(F)(F)F)ccc2O[C@H]1CN(C)S(=O)(=O)c1ccccc1
  i, i, i, i
10) Cc1noc(C)c1S(=O)(=O)Nc1ccc2c(c1)CC(=O)N([C@@H](C)CO)C[C@@H](C)[C@H](CN(C)C(=O)Nc1ccc(F)cc1)O2
  i, i, i, i
11) C[C@@H]1CN([C@H](C)CO)C(=O)c2cc(N(C)C)ccc2O[C@H]1CN(C)Cc1ccccc1
  i, i, i, i
12) C#Cc1ccc([C@@H]2C=C(C(=O)OCC=C)O[C@H](OCC)[C@H]2CCCO)cc1
  i, i, i, i
13) C[C@@H]1CN([C@H](C)CO)C(=O)c2cccc(NS(=O)(=O)c3ccc(Cl)cc3)c2O[C@H]1CN(C)CC1CC1
  i, i, i, i
14) C[C@H]1CN([C@@H](C)CO)C(=O)c2cc(NC(=O)Nc3ccc4c(c3)OCO4)ccc2O[C@@H]1CN(C)Cc1ccncc1
  i, i, i, i
15) Cc1ccc2c(=O)c3ccccc3n(CCCN)c2c1C
  i, i, i, i
16) C[C@@H]1CN([C@@H](C)CO)C(=O)Cc2cc(N(C)C)ccc2O[C@H]1CN(C)C(=O)Nc1ccccc1
  i, i, i, i
17) C[C@@H]1CN([C@@H](C)CO)C(=O)c2cc(NC(=O)Cc3ccccc3)ccc2O[C@@H](C)CCCCO[C@@H]1CN(C)C(=O)CCC(F)(F)F
  i, i, i, i
18) COC(=O)c1c2oc(c1C(=O)OC)C(=O)N[C@H](Cc1ccccc1)Cn1cc(nn1)[C@H](Cc1ccccc1)NC(=O)N[C@H](CO)CC2
  /, i, i, i
19) C[C@H]1CN([C@@H](C)CO)C(=O)Cc2cc(NC(=O)CCN3CCOCC3)ccc2O[C@H]1CN(C)C
  i, i, i, i
20) C[C@H](CO)N1C[C@H](C)[C@H](CN(C)Cc2ccc(C(=O)O)cc2)Oc2c(NC(=O)Nc3ccc(C(F)(F)F)cc3)cccc2C1=O
  i, i, i, i
21) COCCOC(=O)N1C(=O)[C@@]2(c3cc(C#Cc4ccc(OC)cc4)ccc31)[C@H](C(=O)NC[C@H](O)c1ccccc1)[C@H]1C(=O)O[C@H](c3ccccc3)[C@H](c3ccccc3)N1[C@@H]2c1ccc(OCCO)cc1
  i, i, i, i
22) CC(C)NC(=O)N(C)C[C@@H]1OCCCC[C@@H](C)Oc2ccc(NC(=O)Nc3cccc4ccccc34)cc2C(=O)N([C@@H](C)CO)C[C@@H]1C
  i, i, i, i
23) C[C@@H]1CN([C@H](C)CO)C(=O)Cc2cc(NC(=O)Cc3cn(C)c4ccccc34)ccc2O[C@H]1CN(C)S(=O)(=O)c1cccs1
  i, i, i, i
24) COc1ccc(S(=O)(=O)Nc2ccc3c(c2)CC(=O)N([C@H](C)CO)C[C@H](C)[C@@H](CN(C)S(=O)(=O)c2ccc(OC)cc2)O3)cc1
  i, i, i, i
25) Cc1c(NC(=O)CS(=O)(=O)c2ccccc2)c(=O)n(-c2ccccc2)n1C
  i, i, i, i
26) C#CCNC(=O)C1=C[C@H](c2coc3ccccc3c2=O)C[C@H](OCc2ccc(CO)cc2)O1
  i, i, i, i
27) C[C@H](CO)N1C[C@H](C)[C@@H](CN(C)C(=O)NC2CCCCC2)Oc2ccc(NC(=O)NC3CCCCC3)cc2CC1=O
  i, i, i, i
28) CC(C)NC(=O)Nc1ccc2c(c1)C(=O)N([C@@H](C)CO)C[C@@H](C)[C@H](CN(C)Cc1ccncc1)OCCCC[C@H](C)O2
  /, i, i, i
29) C[C@@H]1CN([C@H](C)CO)C(=O)c2cc(NC(=O)NC3CCCCC3)ccc2O[C@@H]1CN(C)Cc1ccc(C(=O)O)cc1
  i, i, i, i
30) C[C@@H]1CCCCO[C@H](CN(C)Cc2ccc3c(c2)OCO3)[C@H](C)CN([C@H](C)CO)C(=O)c2cc(NS(=O)(=O)c3ccccc3)ccc2O1
  i, i, i, i
31) C[C@H](CO)N1C[C@H](C)[C@@H](CN(C)S(=O)(=O)c2cccs2)Oc2ccc(NC(=O)C3CC3)cc2C1=O
  i, i, i, i
32) COc1cc(CCO)ccc1O[C@@H]1O[C@H](CO)[C@@H](O)[C@H](O)[C@H]1O
  /, i, i, i
33) Cc1cccc(-n2nc([N+](=O)[O-])c(=NCc3cccnc3)n2O)c1
  i, i, i, i
34) COc1ccc2cc1/C=C\NC(=O)C(Cc1ccccc1)NC(=O)C1C(CCN1C(=O)C(NC(=O)C(C)N(C)C)C(C)C)O2 (configuration not stated)
  /, i, i, i
35) OC(CCN1CCCCC1)(c1ccccc1)C1C[C@@H]2C=C[C@H]1C2 (some centres not stated)
  i, i, i, i
36) C[C@@H]1CCCCO[C@H](CN(C)C(=O)CCC(F)(F)F)[C@@H](C)CN([C@H](C)CO)C(=O)c2cc(NC(=O)Nc3ccc4c(c3)OCO4)ccc2O1
  i, i, i, i
37) Cc1ccc(S(=O)(=O)N(C)CC(=O)Nc2c(F)cccc2F)cc1
  i, i, i, i
38) C[C@@H]1CCCCO[C@H](CN(C)Cc2ccccc2)[C@@H](C)CN([C@@H](C)CO)C(=O)c2cc(NC(=O)Nc3ccc4c(c3)OCO4)ccc2O1
  i, i, i, i
39) CCNS(=O)(=O)c1cc(-c2nnc(Nc3ccc(NC(C)=O)cc3)c3ccccc23)ccc1C
  i, i, i, i
40) COCCCNC(=O)[C@@]1(C)c2ccccc2C(=O)N(Cc2cc(F)cc(C(F)(F)F)c2)[C@H]1c1ccc(CO)cc1
  i, i, i, i
41) CCN1C(=O)c2cccc3c(S(=O)(=O)N4CCCC4C(=O)O)ccc1c23 (configuration not stated)
  +, i, i, i
42) CC(C)CC(C(=O)Nc1cccc([N+](=O)[O-])c1)N1C(=O)c2ccccc2C1=O (configuration not stated)
  i, i, i, i
43) COc1cc(C(O)CCOC2OC(CO)C(O)C(O)C2O)cc2cc(-c3ccc4c(c3)OCO4)oc12 (configuration not stated)
  i, i, i, i
44) Cc1ccc(NC(=O)COc2ccccc2)c(NC(=O)C2CC2)c1
  i, i, i, i
45) CC(C)NC(=O)N(C)C[C@@H]1OCCCC[C@@H](C)Oc2ccc(NC(=O)Nc3ccc4c(c3)OCO4)cc2C(=O)N([C@@H](C)CO)C[C@@H]1C
  i, i, i, i
46) O=C(CC1NCCNC1=O)Nc1ccc([N+](=O)[O-])cc1 (configuration not stated)
  i, i, i, i
47) O=C1O[C@@H](c2ccccc2)[C@@H](c2ccccc2)N2[C@@H](c3ccc(OCCO)cc3)[C@]3(C(=O)Nc4ccc(C#CC5=CCCCC5)cc43)[C@@H](C(=O)O)[C@H]12
  i, i, i, i
48) Cc1nccn1CC1CCC2C(C1=O)c1ccccc1N2C (configuration not stated)
  i, i, i, i
49) Cc1ccccc1C(=O)c1ccc(Nc2ccc(Br)cc2N)cc1Cl
  i, i, i, i
50) COC(=O)c1c(-c2ccccc2)csc1NC(=O)c1cc(-c2cccnc2)nc2ccccc12
  i, i, i, i
51) COC(=O)[C@@]1(Cc2ccccc2N=[N+]=[N-])COC(c2ccc(OCCCO)cc2)=N1
  i, i, i, i
52) CNC[C@H]1Oc2ccc(NS(=O)(=O)c3ccccc3)cc2CC(=O)N([C@@H](C)CO)C[C@H]1C
  i, i, i, i
53) C[C@H]1CN([C@@H](C)CO)C(=O)CCCn2nncc2CO[C@H]1CN(C)C(=O)Nc1ccccc1C(F)(F)F
  i, i, i, i
54) C[C@H](CO)N1C[C@H](C)[C@H](CN(C)C(=O)NC2CCCCC2)Oc2c(NS(=O)(=O)c3cccs3)cccc2C1=O
  i, i, i, i
55) Cc1noc(C)c1NC(=O)N(C)C[C@H]1Oc2ccc(NS(C)(=O)=O)cc2CC(=O)N([C@@H](C)CO)C[C@H]1C
  i, i, i, i
56) C[C@@H]1CCCCO[C@H](CN(C)C(=O)Cc2ccccc2)[C@H](C)CN([C@@H](C)CO)C(=O)c2cc(NC(=O)Nc3ccc(F)cc3)ccc2O1
  i, i, i, +
57) O=C(NCCO)c1nc(NCCO)c2ccccc2n1
  i, i, i, i
58) Cc1noc(C)c1NC(=O)N(C)C[C@@H]1OCCCC[C@@H](C)Oc2ccc(NC(=O)c3ccncc3)cc2C(=O)N([C@H](C)CO)C[C@H]1C
  i, i, i, i
59) CCC(Sc1ccccn1)C(=O)Nc1ccc(Br)cc1 (configuration not stated)
  i, i, i, i
60) Cc1occc1C(=O)Nc1sc2c(c1C(=O)NCc1cccnc1)CCCC2
  +, i, i, i

61. Cc1noc(C)c1NC(=O)N(C)C[C@H]1Oc2ccc(NC(=O)c3ccncc3)cc2CC(=O)N([C@@H](C)CO)C[C@@H]1C
62. Cc1noc(C)c1NC(=O)N(C)C[C@@H]1Oc2ccc(NC(=O)Nc3ccc4c(c3)OCO4)cc2C(=O)N([C@@H](C)CO)C[C@H]1C
63. COc1cc2c(c(OC)c1)C(=O)OC(C)C2 (configuration not stated)
64. CCn1c(SCC(=O)Nc2ccc(C(C)=O)cc2)nnc1-c1cc(Br)ccc1O
65. C[C@@H]1CN([C@@H](C)CO)C(=O)c2cc(NS(=O)(=O)c3cn(C)cn3)ccc2O[C@@H]1CN(C)C(=O)NC1CCCCC1
66. COc1ccccc1CNc1nc2nc(C)cc(C)n2n1
67. Cc1noc(C)c1S(=O)(=O)Nc1ccc2c(c1)C(=O)N([C@H](C)CO)C[C@H](C)[C@H](CN(C)C(=O)CCC(F)(F)F)OCCCC[C@H](C)O2
68. CN(C(=O)CSc1nc(O)cc(=O)n1-c1ccccc1F)c1ccccc1

assay / compound | 61 | 62 | 63 | 64 | 65 | 66 | 67 | 68
ID4 binder | i | i | i | i | i | i | i | i
c-Myc SMM | i | i | i | i | i | i | + | i
p53 mut binder | i | i | i | i | i | i | i | i
STAT3 SMM | i | i | i | i | i | i | i | i

3 structures already listed, sorted by SMILES length, low to high:
63. COc1cc2c(c(OC)c1)C(=O)OC(C)C2 (configuration not stated)
61. Cc1noc(C)c1NC(=O)N(C)C[C@H]1Oc2ccc(NC(=O)c3ccncc3)cc2CC(=O)N([C@@H](C)CO)C[C@@H]1C
62. Cc1noc(C)c1NC(=O)N(C)C[C@@H]1Oc2ccc(NC(=O)Nc3ccc4c(c3)OCO4)cc2C(=O)N([C@@H](C)CO)C[C@H]1C

assay / compound | 63 | 61 | 62
ID4 binder | i | i | i
c-Myc SMM | i | i | i
p53 mut binder | i | i | i
STAT3 SMM | i | i | i

Continuation.
69. C[C@@H]1CN([C@@H](C)CO)C(=O)c2cccc(NC(=O)c3cnccn3)c2O[C@H]1CN(C)C(=O)Nc1ccccc1
70. Cc1ccc(SCCNS(=O)(=O)c2ccc3c(c2)OCCO3)cc1
71. C[C@@H]1CN([C@@H](C)CO)C(=O)c2cccc(NC(=O)c3nc4ccccc4s3)c2O[C@H]1CN(C)C(=O)Nc1cccc2ccccc12
72. C[C@H]1CN([C@@H](C)CO)C(=O)Cc2cc(NS(=O)(=O)c3ccc(F)cc3)ccc2O[C@H]1CN(C)S(=O)(=O)c1ccc(Cl)cc1

assay / compound | 69 | 70 | 71 | 72
ID4 binder | i | i | i | /
c-Myc SMM | + | i | i | i
p53 mut binder | i | i | i | i
STAT3 SMM | i | i | i | i

Gathered by group, the compounds so far with a furan ring, fused or not (4)
2. COc1cccc(C2=NN(C(=O)c3onc(-c4ccccc4Cl)c3C)C(c3ccco3)C2)c1 (configuration not stated)
18. COC(=O)c1c2oc(c1C(=O)OC)C(=O)N[C@H](Cc1ccccc1)Cn1cc(nn1)[C@H](Cc1ccccc1)NC(=O)N[C@H](CO)CC2
43. COc1cc(C(O)CCOC2OC(CO)C(O)C(O)C2O)cc2cc(-c3ccc4c(c3)OCO4)oc12 (configuration not stated)
60. Cc1occc1C(=O)Nc1sc2c(c1C(=O)NCc1cccnc1)CCCC2

assay / compound | 2 | 18 | 43 | 60
ID4 binder | i | / | i | +
c-Myc SMM | i | i | i | i
p53 mut binder | i | i | i | i
STAT3 SMM | i | i | i | i

Only part of the results is shown; the hit share may differ from the screen's.
